Compound activity: PubChem BioAssay, ICCB-Longwood Screening Facility, Harvard Medical School
S aureus helic – inhibitors of S. aureus replicative helicase, primary screen, biochemical, fluorescence unwinding readout. purified S. aureus helicase, fluorescence unwinding assay; about half of the hits fall short of the stated cut. inhibition, %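 (tested at about 80 µM)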. AID 485395, 2010. 120,000 tested, 0.05% active;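 active = both duplicates at 50% or more, or one of them with a favoured structure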;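 note: 0% = mean of negative control wells and 100% = mean of positive control wells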
MgrA-DNA mod – S. aureus MgrA activity modulators, primary screen, biochemical, S. aureus Newman, fluorescence polarization. MgrA-DNA binding. inhibition, %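 (about 10 µg/mL by stock and volumes)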. 84,000 tested, 0.13% active. AID 602314, 2012;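 active = above 50% in either of two replicates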;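 note: 0% = protein plus DNA without compound and 100% = DNA alone without protein; higher means less MgrA bound to DNA so lower polarization; one replicate is shown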
An asterisk follows results filed as active; · = no result given.

S aureus helic	MgrA-DNA mod	Structure
0.0	·	COC(=O)C1Cc2ccccc2CN1Cc1c(C)n(C)n(-c2ccccc2)c1=O (stereo not drawn)
1.0	0.8	COc1ccc(OC)c(NC(=O)c2ccc(CSc3ncnc4nc[nH]c34)cc2)c1
6.0	-0.1	O=C(NCc1ccco1)c1ccc(/C=C2\Oc3ccccc3N(Cc3ccccc3F)C2=O)cc1
·	1.4	N#Cc1c(-c2ccccc2)cc(-c2ccccc2)nc1N1CCOCC1
·	1.1	C/C(Nc1ccc(Br)cc1)=C(/C#N)C(N)=O
·	0.2	Nc1ccccc1SC1CC(=O)N(c2ccccc2Oc2ccc(Cl)cc2Cl)C1=O (stereo not drawn)
-5.0	1.0	CC1=C(C#N)C(c2cccc(O)c2)C2=C(CC(c3ccccc3)CC2=O)N1 (stereo not drawn)
·	1.2	N#Cc1n[nH]nc1-c1ccc(OC(=O)c2ccc(Cl)cc2)cc1
·	1.3	Cc1onc(-c2c(Cl)cccc2Cl)c1C(=O)NN
-17.0	·	CCC1=N/C(=C\c2ccc(C)cc2)C(=O)O1
0.0	·	Cc1nnc(SCC(=O)c2cc(C)n(-c3ccc4c(c3)OCO4)c2C)n(N)c1=O
-22.0	·	COc1ccc2c(C)cc(SCC(=O)Nc3ccccc3)nc2c1
·	1.6	CCOC(=O)c1cnc(S/C=C/C(=O)c2ccc(C)cc2)nc1N
-30.0	·	COC(=O)C(C)(C)ON1C(=O)c2ccccc2C1=O
-18.0	0.4	COc1cc(Cl)c(C)cc1NC(=O)CSc1nc2ccccc2[nH]1
-26.0	·	O=C1CCCC2=C1C(c1ccc(O)cc1)C1=C(CCCC1=O)O2
-20.0	-2.1	CC(C)N(c1ccccc1)c1ccc(NC(=O)COC(=O)C2CC2)cc1
6.0	·	O=S(=O)(c1ccc2c(c1)C(=NO)c1cc(S(=O)(=O)N3CCCC3)ccc1-2)N1CCCC1
-11.0	·	CCOc1ccc2nc(N3CCCC3)sc2c1
-1.0	-0.4	Cc1ccc(S(=O)(=O)NCCC(=O)N2CCN(Cc3ccccc3)CC2)cc1
·	4.0	Cc1c(C)c(C)c(S(=O)(=O)/N=C/N(C)C)c(C)c1C
3.0	-2.2	CC1CCC/C(=C/c2ccc(Cl)cc2)C1=O (stereo not drawn)
1.0	-2.4	CCn1c(SCC(=O)Nc2ccc(OC)cc2)nnc1C1CC1
-19.0	·	CCN(C(=O)Cc1c(C(=O)O)[nH]c2ccccc12)c1ccccc1
34.0	·	O=c1[nH]c(O)c(N=Nc2ccc(S(=O)(=O)N3CCCCC3)cc2)c(=O)[nH]1
·	2.5	CCOC(=O)C1=C(C)NC2=C(C(=O)CC(c3ccc(OC)cc3)C2)C1c1cc(Br)c(O)c(OC)c1 (stereo not drawn)
7.0	0.7	CN(C)c1nc(OCCNC(=O)COc2ccccc2Cl)nc(N(C)C)n1
26.0	·	Cc1cccc(N=C2CNC(=O)NC2=O)c1
·	1.6	Clc1ccccc1Nc1nc(-c2ccccc2)cs1
14.0	-1.4	CCC1CCCCN1S(=O)(=O)c1ccc(Cl)cc1 (stereo not drawn)
-6.0	·	Cc1ccccc1Nc1nc(N)nc(CSCC(=O)NC2CCCc3ccccc32)n1 (stereo not drawn)
-5.0	·	COc1ccc(/C=C/C(=O)Nc2nnc(-c3ccccc3)s2)cc1OC
9.0	0.8	COc1ccc2oc(=O)c3c(c2c1)CC(C(F)(F)F)S3 (stereo not drawn)
8.0	·	CCOC(=O)c1c(COC(=O)/C=C/c2ccc(C)o2)nc2ccccc2c1C
14.0	-7.0	COc1cccc(CN2CCC(C(=O)NC(C)C)CC2)c1
-3.0	·	COc1ccc(CC(=O)N2CCCC(C)C2)cc1 (stereo not drawn)
·	-0.2	Cc1nc2cc(-c3ccccc3)nn2c(C)c1Sc1nccc(-c2cccnc2)n1
2.0	·	COc1ccc(CCNCc2cccn2-c2c(C(=O)O)cnn2-c2ccccc2)c(OC)c1
4.0	-1.5	CCC1(C)Cc2ccccc2-c2c1c(=O)n(-c1ccc(C)cc1)c1nnnn21 (stereo not drawn)
·	-1.5	Cc1cccc(NC(=O)C2COc3ccccc3O2)c1C (stereo not drawn)
-14.0	·	NC(=O)N1CCCC1
1.0	-2.6	CCN(CC)C(=O)c1ccc(COc2ccccc2Cl)o1
12.0	·	Cc1cccc(C(=O)Nc2cccc(-c3ccc(N4CCN(C)CC4)nn3)c2)c1
-1.0	-2.8	CC(Sc1nnc(N)s1)c1nc2ccccc2c(=O)[nH]1 (stereo not drawn)
-7.0	·	C#CC(CC)(CC)NC(=O)c1ccccc1Br
-3.0	·	COC(=O)c1c(N)c(C#N)c2n1CCCC2
5.0	·	Cc1[nH]c2ccccc2c1C(=O)C(C)N1CCN(c2ncc(C(F)(F)F)cc2Cl)CC1 (stereo not drawn)
12.0	1.0	CCN(Cc1ccccc1)C(=O)c1ccc2c(Cl)c3c(nc2c1)CCCC3
·	-3.5	CCCCc1c(C)nc(SC)[nH]c1=O
20.0	·	O=C(Cn1nnc(N2CCOCC2)n1)c1ccc(Cl)cc1
·	-0.9	COc1cc([N+](=O)[O-])ccc1N=Cc1nc(-c2ccccc2Br)oc1O
15.0	·	COc1ccc(NC(=O)CSc2nnc3[nH]c(=O)cc(N)n23)cc1
8.0	·	Cc1ccccc1OCC(O)CN(Cc1ccccc1)Cc1ccco1 (stereo not drawn)
-11.0	·	Cc1ccc(-c2ccc(CCC(=O)O)n2C(C)C)cc1
-11.0	·	Cc1ccc(C2=NN(C(=O)CSc3nc4nc(C)cc(C)n4n3)C(c3ccco3)C2)cc1 (stereo not drawn)
17.0	-0.2	COC(=O)c1c(NC(=O)C(F)(F)F)sc2c1CCCC2

(continued)
S aureus helic	MgrA-DNA mod	Structure
-16.0	·	O=c1c(-c2cc3ccccc3o2)coc2ccccc12
-12.0	·	CCCCN(C(=O)C1=CC=CN2CCS(=O)(=O)N=C12)c1ccccc1
2.0	0.6	CC(C)COc1ccc(C(=O)Nc2ncn[nH]2)cc1
·	-2.8	COc1cccc(CNC(=S)SCC(=O)C(C)(C)C)c1
·	-1.1	Cc1onc(-c2ccccc2Cl)c1C(=O)Nc1cccc(C(F)(F)F)c1
·	-0.6	CSc1sc(-c2ccon2)c(-c2ccco2)c1C#N
5.0	1.5	O=C(CN1C(=O)/C(=C\c2cccc(Cl)c2)Oc2ccccc21)NCC1COc2ccccc2O1 (stereo not drawn)
1.0	-3.3	CCN(CCOC)c1nsnc1OC(C)C
·	-1.1	c1ccc2c(c1)c1ccccc1n2CC1CS1 (stereo not drawn)
9.0	-0.8	Cc1ccc(-c2csc3ncnc(NCCO)c23)cc1
17.0	·	CS(=O)(=O)Nc1ccc(C(=O)CSc2ccc3c(c2)OCCO3)cc1
9.0	4.9	CCOC(=O)c1nc2ccccc2s1
-3.0	·	CNS(=O)(=O)c1cccc(C(=O)OCC(=O)N2CCCc3ccccc32)c1
9.0	13.2	CCN1C(=O)C(=Cc2ccc(N(C)C)cc2)C(=O)N(CC)C1=S
6.0	-3.6	COc1ccc(C(O)c2nccc3cc(OC)c(OC)cc23)cc1OC (stereo not drawn)
-7.0	·	CCC(=O)NCc1nc2ccccc2n1Cc1ccccc1F

Compound profiles (already shown).
`CNS(=O)(=O)c1cccc(C(=O)OCC(=O)N2CCCc3ccccc32)c1` is listed as S aureus helic: -3.0; MgrA-DNA mod: ·
`c1ccc2c(c1)c1ccccc1n2CC1CS1` (stereo not drawn) is listed as S aureus helic: ·; MgrA-DNA mod: -1.1

Later entries.
S aureus helic	MgrA-DNA mod	Structure
·	-0.5	COc1cc2c(cc1OC)C(c1ccc(Cl)cc1)=NCC2
-19.0	·	Cc1cc(OC(C)C(=O)N(Cc2ccco2)Cc2ccco2)ccc1Cl (stereo not drawn)
14.0	3.3	COc1ccc(C2CC(=O)c3cnc(NCCc4ccccc4)nc3C2)cc1 (stereo not drawn)
·	15.5	COc1cc(/C=C2\C(=O)NC(=O)N(c3ccc(Cl)cc3)C2=O)cc(Br)c1O
-7.0	·	NC(=O)Nc1ccc(C(=O)Nc2ccc3c(c2)CCC3)cc1
16.0	0.5	Clc1ccccc1C1SCC2Nc3ccccc3CN21 (stereo not drawn)
16.0	3.8	O=C(CCCOc1ccc(Cl)cc1Cl)NCc1ccncc1
13.0	·	CC1SC(c2ccc(C(C)C)cc2)N(C)C1=O (stereo not drawn)

Three compounds out of the list, ordered by SMILES length, lowest first:
S aureus helic	MgrA-DNA mod	Structure
16.0	3.8	O=C(CCCOc1ccc(Cl)cc1Cl)NCc1ccncc1
·	-0.5	COc1cc2c(cc1OC)C(c1ccc(Cl)cc1)=NCC2
·	15.5	COc1cc(/C=C2\C(=O)NC(=O)N(c3ccc(Cl)cc3)C2=O)cc(Br)c1O

(continued)
S aureus helic	MgrA-DNA mod	Structure
-53.0	·	O=C1NC(c2ccco2)Nc2sc3c(c21)CCN(Cc1ccccc1)C3 (stereo not drawn)
9.0	0.2	Nc1nc(-c2ccc(F)cc2)cc(C(F)(F)F)n1
-3.0	0.8	Cn1c(CNc2cccc(Cl)c2)nnc1SCC(=O)OC1CCCCC1
28.0	-1.1	CN1CCc2c(sc3[nH]c(=S)n(-c4ccccc4)c(=O)c23)C1
4.0	-0.9	Cc1cccc(NC(=O)CN(c2cccc(C(F)(F)F)c2)S(C)(=O)=O)c1
·	-2.1	CCSc1nc2ccccc2nc1SCC
2.0	3.1	CCOC(=O)c1c(C)[n+]([O-])c2ccc3c(non3O)c12
·	-1.2	CC(C)(C)OC(=O)C(C)(C)Sc1nnc(N)s1

Quoted from the listing:
Value of CC(C)(C)OC(=O)C(C)(C)Sc1nnc(N)s1 in MgrA-DNA mod: -1.2
Value of CCOC(=O)c1c(C)[n+]([O-])c2ccc3c(non3O)c12 in S aureus helic: 2.0

The listing continues:
S aureus helic	MgrA-DNA mod	Structure
-3.0	-0.3	CCc1ccc(NC(=O)CN2C(=O)CSC2=O)cc1
15.0	0.8	CCC(Sc1nnc(-c2c[nH]c3ccccc23)n1C)C(=O)OC (stereo not drawn)
-19.0	·	O=C(NNc1ccccc1)c1cc(-c2cccs2)nn1-c1ccccc1
12.0	·	Cc1cc(C)n(C(=O)CNC(=O)c2ccccc2)n1
-16.0	·	CC1CCCCN1C(=O)CSc1nnc2c(Cl)cc(Cl)cn12 (stereo not drawn)
-18.0	·	CCn1c(=O)c2cc(C(=O)N3CCC4(CC3)OCCO4)sc2c2ccccc21
-1.0	·	NNC(=O)C1CCS(=O)(=O)C1 (stereo not drawn)
11.0	·	CCc1ccccc1NNC(=O)c1snnc1C

A section taken from the entries so far:
S aureus helic	MgrA-DNA mod	Structure
-18.0	·	CCn1c(=O)c2cc(C(=O)N3CCC4(CC3)OCCO4)sc2c2ccccc21
-1.0	·	NNC(=O)C1CCS(=O)(=O)C1 (stereo not drawn)
11.0	·	CCc1ccccc1NNC(=O)c1snnc1C

Next section.
S aureus helic	MgrA-DNA mod	Structure
-2.0	-1.5	Cc1ccc(N2CCN(C(=O)c3cnn4c(C)c(Cc5ccccc5Cl)c(C)nc34)CC2C)cc1 (stereo not drawn)
5.0	·	O=C(CCn1cnc2ccccc21)N/N=C/c1ccccc1
·	-3.6	NC(=O)c1cccc2cccc(Br)c12
1.0	·	Cc1nc2ccc(NC(=O)Nc3ccccc3)cc2o1
·	-0.3	CC(=O)Nc1ccc(-c2nc(-c3ccccc3)nc3ccccc23)cc1
2.0	·	Cc1cccc(N2CCN(CC(=O)c3ccc4cc[nH]c4c3)CC2C)c1 (stereo not drawn)
16.0	·	CCc1nc2ccc(C(=O)NC(C)C)cc2nc1CC
9.0	-1.5	O=C(NC1=NCCS1)c1ccccc1
12.0	·	CN(C(=O)CSc1nnc(Cc2cccs2)n1CCc1ccccc1)c1ccccc1
5.0	·	CCOC(=O)C1=C(CSc2nnnn2-c2ccccc2)NC(=O)NC1C (stereo not drawn)
·	1.1	COC(=O)Nc1nc2ccc(SC(C)C)cc2[nH]1
-33.0	-0.4	FC(F)(F)c1cccc(OCc2nnc3n2CCCCC3)c1
-20.0	·	c1ccc2nc3c(nc2c1)sc1nc2ccccc2n13
·	3.5	O=C(Nc1ccc(F)cc1)c1ccccc1N=Cc1cc(Cl)cc(Cl)c1O
·	1.5	CCCOC(=O)CSc1nc2c(c(-c3ccc(O)cc3)c1C#N)CCCC2
-22.0	5.5	CC(=O)Nc1ccc(-n2c(C)ccc2C)cc1
-6.0	·	CCN(CC)S(=O)(=O)c1ccc(N2CC(C(=O)Nc3nc4ccccc4s3)CC2=O)cc1 (stereo not drawn)
-16.0	·	CC1CCCCN1S(=O)(=O)c1ccc2c(c1)C(C)(C)C(=O)N2C (stereo not drawn)
8.0	0.0	Cc1ccc(CNC(=O)CCC(=O)Nc2ccc3nc(N4CCCCC4)cc(C)c3c2)cc1
20.0	-0.6	O=C(NCCN1CCOCC1)NC(=O)c1ccccc1
12.0	-1.1	O=C(CSc1ccc(Cl)cc1)NC1CCCc2ccccc21 (stereo not drawn)
0.0	-2.9	Cc1cccc(NC(=O)CN2c3cccc4cccc(c34)S2(=O)=O)c1
·	-0.2	Nc1cccc(Cl)c1Oc1ccc(S(=O)(=O)N2CCOCC2)cc1
3.0	·	c1ccc2c(OCCCCCn3ccnc3)cccc2c1
2.0	-1.7	O=S(=O)(NC1CCCCC1Oc1ccccc1)c1ccccc1 (stereo not drawn)
7.0	·	O=C(CCC(=O)N1CCN(S(=O)(=O)c2ccccc2)CC1)Nc1ccc2c(c1)OCCO2
-10.0	-0.1	CC(O)C12CC3CC(CC(C3)C1)C2 (stereo not drawn)
12.0	·	Cc1cc(=O)[nH]c(-c2ccc(C(F)(F)F)cc2)n1
13.0	·	CCC(=O)Oc1ccc(N2C(=O)C3C4C=CC(C4)C3C2=O)cc1 (stereo not drawn)

An excerpt; count on the stated rates, not on these rows.
